gsp antag – qHTS for Antagonists of gsp, the Etiologic Mutation Responsible for Fibrous Dysplasia/McCune-Albright Syndrome: qHTS; 340,000 compounds, 0.4% hits; Potency, µM (titrated, usually from 76.9 µM), inactives show at the top dose activity change, negative = inhibition, usual class: inhibitors; AID 624288, 2012; gsp-mutant cells, cAMP HTRF, 30 min; control for the full effect not named in the record; active = falling curve of any shape with a large fitted effect; inconclusive = falling curve, mostly with a smaller effect; inactive = flat or rising curve; cell line not stated here;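 further: intracellular cAMP measured with PDE inhibitor Ro 20-1724 present during compound exposure; potency means the concentration at half of the fitted maximal effect; on the % scale 0 is the no-effect control and ±100 the full control effect; nearly all actives have a fitted effect of over 65% in size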
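HTRF cAMP read-out (cAMP-d2 plus anti-cAMP antibody-K in lysis buffer, 30 min RT). Before lysis, cells are exposed to compounds with […] for 30 min at 37C in DPBS containing Ca/Mg, BSA and Tween 20.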
Menin MLL FP FL – qHTS Assay for Inhibitors Targeting the Menin-MLL Interaction in MLL Related Leukemias: Competition With Fluorescein Labeled MLL-derived Peptide; Fluorescence polarization, fluorescein-MLL peptide displacement from menin; FP activity change, % at 61.4 µM; 290,000 tested, under 10 active; inconclusive = falling polarisation curve, or a change in total fluorescence; inactive = total fluorescence flat and polarisation flat or rising; no compound was filed as active; the % refers to the polarisation; negative = inhibition;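 further: % of control where 0% means no effect; inhibitors lower the polarisation; unlabelled MLL peptide was the positive control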
gsp agonist – qHTS for Agonist of gsp, the Etiologic Mutation Responsible for Fibrous Dysplasia/McCune-Albright Syndrome: qHTS. 340,000 compounds, 0.13% hits. gsp mutant cells, cAMP HTRF, 30 min; control for the full effect not named in the record. Potency, µM (doses to about 76.9 µM), for inactives: top-dose activation (cAMP increase), usual class: activators; active = well fitted activation curve with a large enough effect; inconclusive = small, poorly fitted or top-dose-only effect, or another doubt; inactive = no such curve, though single readings can be large or run the other way; cell line not stated here;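 further: phosphodiesterase inhibitor Ro 20-1724 added with compounds to block cAMP breakdown; potency means the concentration at half of the fitted maximal effect; nearly all actives have a fitted effect of over 60% in size; about a fifth of the inactives were tested at one dose only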
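Cells stably selected in G418 were plated at 2000/well, grown 16-24 hr, then given compounds in DMSO with the PDE inhibitor […] (300 uM solution added) for 30 min at 37C; cAMP was read by HTRF.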
TRPML1 agonist – qHTS for Agonists of the Human Mucolipin Transient Receptor Potential 1 (TRPML1). Mucolipin-1 (Homo sapiens), Q9GZU1. TRPML1-expressing cells, Ca2+ dye fluorescence, FDSS; host cell line not named in the record; reference of the full effect not given here. activation, % (test concentration not listed). 410,000 compounds, 0.12% hits; in the data active = activation above about 50%; inconclusive = about 30% to 50%; inactive = below about 30%; further: 0% is about no effect; the text of the record puts the active cut at 80%
Target sequence (Q9GZU1 whole entry, looked up): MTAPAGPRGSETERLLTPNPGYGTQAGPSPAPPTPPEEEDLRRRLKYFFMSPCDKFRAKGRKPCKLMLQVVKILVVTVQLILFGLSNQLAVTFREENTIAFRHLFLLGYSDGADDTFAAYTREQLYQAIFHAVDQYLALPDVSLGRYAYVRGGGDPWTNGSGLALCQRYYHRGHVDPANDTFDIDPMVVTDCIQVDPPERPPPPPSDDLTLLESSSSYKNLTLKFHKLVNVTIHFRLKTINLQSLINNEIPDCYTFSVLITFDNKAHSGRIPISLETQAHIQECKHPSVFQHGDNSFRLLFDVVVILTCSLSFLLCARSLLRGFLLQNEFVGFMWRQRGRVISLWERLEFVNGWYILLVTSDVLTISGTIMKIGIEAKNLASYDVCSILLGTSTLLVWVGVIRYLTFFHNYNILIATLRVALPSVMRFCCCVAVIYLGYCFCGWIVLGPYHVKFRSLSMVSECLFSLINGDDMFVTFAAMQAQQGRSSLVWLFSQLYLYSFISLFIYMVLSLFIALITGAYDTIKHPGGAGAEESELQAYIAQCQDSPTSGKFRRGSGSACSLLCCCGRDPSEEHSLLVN
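Kinetic FDSS Ca2+ read in Tet-induced TRPML1-DL cells (ABD Ca8 dye plus quencher, 45-90 min RT loading): baseline, then compound, then 110 s agonist window; EC80 agonist 54-4 at 4uM final added afterwards for a 110 s antagonist window.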
ClpP mod – qHTS Assay for Activators of ClpP | ATP-dependent Clp protease proteolytic subunit (Bacillus subtilis (strain 168)), P80244 | purified B. subtilis ClpP, FRET peptide cleavage, 20 min | Potency, µM (titrated, usually from 57.5 µM), for inactives: at the top dose activity change, negative = active | 340,000 compounds, 1.9% hits | AID 651965, 2013; active = well fitted falling curve with a large enough effect; inconclusive = small, poorly fitted or top-dose-only effect; inactive = no such curve, though single readings can be large or run the other way; further: potency means the concentration at half of the fitted maximal effect; the source files actives as falling curves though it sought activators and does not explain the sign; nearly all actives have a fitted effect of over 65% in size; many hits overshoot -100%
Target sequence (P80244 whole entry, looked up): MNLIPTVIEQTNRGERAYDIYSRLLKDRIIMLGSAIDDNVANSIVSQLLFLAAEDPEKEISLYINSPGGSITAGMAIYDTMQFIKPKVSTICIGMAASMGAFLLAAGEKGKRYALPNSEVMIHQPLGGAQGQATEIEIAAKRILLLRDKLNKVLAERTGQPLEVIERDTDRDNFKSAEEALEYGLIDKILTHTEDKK
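FRET quenching reversal measured ClpP activation: 10 microg/mL B. subtilis ClpP at pH 8 with the FRET-FV decapeptide, read at 430 nm after 320 nm excitation. The 20-min minus 0-min signal was scaled between DMSO/no-enzyme wells and ADEP (5.8 microM final).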
TRPML1 inh – qHTS for Inhibitors of the Human Mucolipin Transient Receptor Potential 1 (TRPML1) | Mucolipin-1 (Homo sapiens), Q9GZU1 | TRPML1-inducible cells, Ca2+ dye fluorescence, FDSS; active compounds read low; inhibition of EC80 agonist-evoked calcium signal | activity change, negative = inhibition, % (concentration not given with the values) | 390,000 compounds, 0.02% hits; in the data active means activity change below about -50%; inconclusive means about -30% to -50%; inactive means above about -30%;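 further: stimulus is agonist 54-4 at its EC80 concentration; on the % scale 0 is the no-effect control and ±100 the full control effect; the text of the record puts the active cut at -80%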
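TRPML1-DL cells, Tet-induced overnight (~16 h, 37 °C) at 1,500 cells/well, were loaded with Ca8 no-wash dye plus quencher for 45-90 min at room temperature. Compounds were pinned during FDSS kinetic reading; agonist 54-4 at EC80 (4 uM final) then added.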
Numbers without * were called inactive; ? = inconclusive; . = no result given; & = joins results of further samples; [ ] = dose if it differs, or a comment.

SMILES	gsp antag	Menin MLL FP FL	gsp agonist	TRPML1 agonist	ClpP mod	TRPML1 inh
COc1ccc(-c2cc(C(=O)OCC(=O)NC(C)C)c3ccccc3n2)cc1	-7.0%	-7.2	28.6%	1.4	.	-2.1
Cc1cc2c(cc1C)N(CC(=O)N1CCCC1)C(=O)CC(c1ccccc1)=N2	-3.8%	-0.8	-3.2%	0.0	-2.2%	7.2
BrC(/C=N/Nc1nc(N2CCOCC2)nc(N2CCOCC2)n1)=C/c1ccccc1	-6.6%	4.6	5.1%	0.5	-5.6%	-12.1
O=C(COc1ccccc1Cc1ccccc1)Nc1cccnc1	-6.5%	.	-19.3%	1.5	0.2%	-0.1
Cc1ccc(C)c(N(C)C(=O)c2cc3c(s2)-c2ccccc2OC3)c1	.	.	.	2.4	?	26.8
NC(=O)CSc1nc2ccccc2nc1SCC(N)=O	-14.7%	1.8	-7.9%[15.4 µM]	-0.3	0.3%	-6.9
O=C1NC(=S)S/C1=C\c1coc2ccccc2c1=O	?	?	3.2%	0.4	-7.8%	48.5
O=C1c2cccnc2C(=O)N1Cc1ccccc1	10.8%	0.1	?	-0.6	1.2%	7.6
Cc1cc(C)c2nc(N(CCCN(C)C)C(=O)C3=COCCO3)sc2c1	16.1%	.	0.2%	0.6	2.3%	7.7
COC(=O)Cc1[nH]nc2c1C1(CCSCC1)C(C#N)=C(N)O2	-4.6%	3.3	-49.3%[inhibitor]	0.0	0.2%	9.0
COCCCNC(=O)c1ccc(Cn2c(=O)c3ccccc3n(Cc3ccc(C)cc3)c2=O)cc1	0.5%	-4.9	-3.7%	0.8&0.6	-12.1%&-21.6%	-2.7&5.3
COc1ccc(S(=O)(=O)NC2CCCC2)cc1C(N)=O	3.8%	.	-1.8%	0.4	-0.5%	10.7
Cc1ccc(NC(=O)c2cnc(SCC(=O)c3ccccc3)n(C)c2=O)cc1	2.7%	.	-3.8%[15.4 µM]	0.4	-2.9%	0.0
CCCN1CNC(=S)N(CCc2ccccc2)C1	5.2%	2.1	1.0%[15.4 µM]	-0.6	-1.9%	-7.8
CCNC(=O)COC(=O)c1cc(S(=O)(=O)N2CCCc3ccccc32)ccc1Cl	-6.8%	2.8	-0.4%[15.4 µM]	1.6	.	16.9
CC(Sc1ccsc1[N+](=O)[O-])C(=O)NCc1ccco1 (configuration not stated)	1.4%	-1.1	-29.8%	-0.1	-3.4%	-6.6
O=C(NC1CCCCC1)C(c1ccc2ncccc2c1)N(Cc1ccco1)C(=O)c1ccc2c(c1)OCCO2 (configuration not stated)	-16.1%	3.3	5.5%	2.3	1.4%	-1.5
c1ccc(-n2c(SCc3ccncc3)nnc2-c2ccco2)cc1	-1.4%	-0.9	5.6%	0.7	-1.6%	31.9
O=C(CSc1nc2c(c(=O)n1-c1ccc(F)cc1)SCC2)NCc1ccco1	-2.8%	-1.5	11.1%	0.7	0.7%	-0.3
CC1(C)N=C(N)NC(Nc2ccc(Cl)cc2)=N1	1.6%	.	0.6%	0.2	.	-1.0
COCCN(C(=O)CSc1nc2ccc(Cl)cc2[nH]1)c1c(N)n(Cc2ccccc2)c(=O)[nH]c1=O	4.0%	3.7	1.8%	0.4	2.2%	-23.2
COc1ccc(S(=O)(=O)N2CCOCC2)cc1NC(=O)C1CCCN1C(=O)c1cccs1 (configuration not stated)	9.9%	.	-3.4%	-0.5	-6.3%	3.1
C=CCN(C(=O)c1csnn1)C(C(=O)NCc1ccc(F)cc1)c1ccc(F)cc1 (configuration not stated)	3.0%	-0.3	?	1.1	.	4.6
O=C(Nc1ccc(S(=O)(=O)N2CCOCC2)cc1)c1nn(-c2ccc(F)cc2)ccc1=O	-5.8%	-3.8	27.1%	-0.8	-0.1%	-8.7
O=C(CN(C(=O)CCNC(=O)c1ccco1)c1ccccc1)NC1CCCC1	11.5%	5.7	3.9%	-0.7	1.7%	-1.2
CCC(=O)N1C(=O)CCN(C(C)=O)c2ccccc21	7.9%	0.6	?	-1.0	0.5%	-5.7
O=C1CC(c2nc3ccccc3[nH]2)CN1c1ccccc1 (configuration not stated)	2.7%	-2.8	11.1%	-0.4	-1.9%	17.0
Cc1cc(C)c2nc(Cl)c(C3NC(=O)c4ccccc4N3)cc2c1 (configuration not stated)	-7.3%	6.1	2.9%	1.5	4.4%	22.0
CCN(CC)CCNc1nc(C(F)(F)F)nc2c1nnn2Cc1ccccc1	2.6%	-1.4	-57.9%[inhibitor]	1.3	.	-6.0
CCOC(=O)N1CCN(C(=O)c2ccc3c(=O)n(CCC4=CCCCC4)c(=S)[nH]c3c2)CC1	-0.2%	-0.6	-6.8%	0.1	-2.6%	-0.2
COC(=O)[C@]1(Cc2ccccc2)N[C@H](CN(C)S(=O)(=O)c2ccc(F)cc2)[C@@H]2C(=O)N(C)C(=O)[C@@H]21	-7.9%	.	.	-0.4	-0.1%	6.8
COc1ccc(NC(=O)CSc2nnc(-c3ccc(C)cc3)o2)cc1	.	.	.	1.6	2.4%	-1.1
CCn1nnnc1-c1ccc(OC)c(S(=O)(=O)Nc2ccc(C(=O)OC)cc2)c1	-16.5%	-0.7	-37.2%[inhibitor]	0.5	1.3%	-8.3
O=C(CN1CCOCC1)Nc1ccccc1C(=O)Nc1ccccc1	14.9%	-5.5	-2.2%[15.4 µM]	0.4	.	9.9
CCOc1ccc(NC(=O)CSc2nnc3scc(-c4ccccc4)n23)cc1	.	.	.	4.0	-1.4%	15.2
Cc1cc(CNCc2cn(C)nc2-c2ccc(Oc3ccccc3)cc2)on1	-10.0%	-0.4	0.5%[15.4 µM]	1.3	.	-8.5
CS(=O)(=O)c1ccccc1C(=O)NC1CCCc2ccccc21 (configuration not stated)	11.9%	-2.8	-21.0%	0.1	.	-1.3
Cc1cc(C)cc(N(C)S(=O)(=O)c2nnc(NC(=O)C(C)C)s2)c1	-2.4%	-2.9	-15.8%[15.4 µM]	-1.5	-0.3%	-8.3
COc1ccccc1Nc1ncc(C(=O)N2CCC(C(N)=O)CC2)c2ccccc12	1.4%	-0.6	10.9%	1.8	-9.9%	17.4
CCOC(=O)n1c(SCC(=O)N(CC)CC)nc2ccccc21	-0.4%	0.7	27.9%	-1.2	1.6%	3.7
O=C(O)c1cc(-c2ccco2)[nH]n1	0.7%	?	0.7%	-0.8	-1.5%	29.2
O=C(COC(=O)C12CC3CC(CC(Br)(C3)C1)C2)Nc1c(F)cccc1F	-0.9%	.	5.0%	1.1	1.7%	-6.6
COc1ccc(N2CCC(CNC(=S)Nc3cccc(C)c3)C2)cc1 (configuration not stated)	-13.6%	3.2	2.9%	-0.6	-1.9%	-12.2
CCOC(=O)c1cccc(P(C)(C)=O)c1	-6.8%	-2.9	22.8%[15.4 µM]	0.7	-1.8%	14.0
O=c1ccc(NS(=O)(=O)c2ccccc2Cl)cn1Cc1ccc(Cl)c(Cl)c1	-0.6%	0.3	-1.5%	0.6	1.9%	-5.0
CCn1c(C)cc(/C=C2/NC(=O)N(Cc3ccccc3F)C2=O)c1C	-14.2%	8.5	?	-0.4	.	33.3
O=C(Nc1ccccc1)C1Cc2ccccc2CN1C(=O)c1ccco1 (configuration not stated)	-7.9%	2.1	1.9%	-0.8	-3.4%	-7.6
Cc1cc(NC(=O)c2cc(-c3ccccc3)on2)no1	12.3%	1.8	21.7%	-1.0	-0.4%	-3.5
COc1cc(C(=O)NNC(=S)NC(=O)c2ccc(Cl)cc2)cc(OC)c1OC	12.0%	-3.2	17.4%	3.9	-0.5%	-6.9
O=C(Nc1nnc(-c2ccccc2)o1)c1cccc(N2C(=O)CCC2=O)c1	-2.7%	3.8	-70.2%	0.0	1.6%	-11.3
(continued)
SMILES	gsp antag	Menin MLL FP FL	gsp agonist	TRPML1 agonist	ClpP mod	TRPML1 inh
Cc1ccc(NC(=O)C2CCCN2S(=O)(=O)c2cccc3nsnc23)c(C)c1 (configuration not stated)	.	.	.	-0.3	-0.9%	11.1
CSc1ncccc1C(=O)Nc1nc2ccc(F)cc2s1	39.8µM*	2.1	0.1%[15.4 µM]	0.7	.	0.6
CCC(C)OC(=O)C1=C(C)O[C@]23OC(N)=C(C#N)[C@]12C(=O)c1ccccc13 (some centres not stated)	-6.5%	0.8	-7.3%	1.4	-3.1%	4.3
CC(=O)Nc1ccc(NC(=O)CCC(=O)OCC(=O)c2ccc(C)c([N+](=O)[O-])c2)cc1	15.9%	-2.3	-1.2%[15.4 µM]	-0.1	.	-1.5
CCn1c(=S)sc2c(=O)n(CC(=O)NCCCc3ccccc3)c(C)nc21	-4.8%	-1.8	-1.0%	1.1	-2.5%	7.9
CC(C)CCNC(=O)C1CCCN(S(=O)(=O)c2ccc(F)cc2)C1 (configuration not stated)	-2.8%	4.4	26.2%	-0.9	0.4%	-6.7
Cc1ccc2oc(C(=O)N(CCO)Cc3ccccc3)c(C)c2c1	3.5%	3.7	-38.3%[inhibitor]	0.1	.	-7.9
CC(=O)c1ccc(NC(=S)NCCCN2CCOCC2)cc1	-8.3%	4.1	-24.2%	1.9	1.6%	3.9
CCn1cc(C(=O)NCc2ccc(C)cc2)c(=O)c2cc(S(=O)(=O)N3CCC(C)CC3)ccc21	.	.	.	-1.0	0.9%	-4.9
N#Cc1cccc(NC(=O)c2cc3c(s2)-c2ccc(Cl)cc2SC3)c1	.	.	.	3.0	-6.7%	6.8
Cc1cc(C(=O)CSc2nn3c(=O)c(C(C)(C)C)nnc3s2)c(C)n1-c1ccc(F)cc1	4.3%	5.8	?	-0.1	1.2%	3.4
Cc1nn2c(N3CCCC3)c3c(nc2c1-c1ccccc1)CCC3	?	10.7	-8.0%[15.4 µM]	1.2	.	10.6
O=C(Nc1ccc(N2CCN(c3ccc(C(F)(F)F)cn3)CC2)nc1)c1cccs1	-4.5%	2.0	10.4%[15.4 µM]	0.0	.	44.6
CCn1ncc([N+](=O)[O-])c1C(=O)n1nc(C)cc1C	8.0%	2.8	-5.5%[15.4 µM]	0.1	-0.1%	12.6
COc1ccc(C2C(C(=O)c3sc(C)nc3C)=C(O)C(=O)N2CCCn2ccnc2)cc1OC (configuration not stated)	6.7%	2.1	10.0%	-1.0	-1.0%	3.9
CCN(CC)c1c([N+](=O)[O-])c(=O)n(C)c2ccccc12	-7.5%	-1.4	-9.4%[15.4 µM]	4.1	.	5.4
O=C1CC(=C2c3ccccc3-c3ccccc32)C(=O)N1CCCCN1CCN(c2ccccc2)CC1	0.7%	-0.7	?	-0.7	-0.5%	-0.9
